Assay outcomes deposited in PubChem by National Center for Advancing Translational Sciences (NCATS).
VDR inh – Inhibitors of the vitamin D receptor (VDR): qHTS; hit rate 0.93% among 400,000; VDR-SRC2-3 peptide fluorescence polarization, 2 h; Potency, µM, inactives show max response, negative = inhibition, usual class: inhibitors; active = well fitted inhibition curve with a large enough effect; inconclusive = small, poorly fitted or top-dose-only effect, or another doubt; inactive = no such curve, though single readings can be large or run the other way; also: series mostly up to about 120 µM
Target sequence (P11473 whole entry, looked up): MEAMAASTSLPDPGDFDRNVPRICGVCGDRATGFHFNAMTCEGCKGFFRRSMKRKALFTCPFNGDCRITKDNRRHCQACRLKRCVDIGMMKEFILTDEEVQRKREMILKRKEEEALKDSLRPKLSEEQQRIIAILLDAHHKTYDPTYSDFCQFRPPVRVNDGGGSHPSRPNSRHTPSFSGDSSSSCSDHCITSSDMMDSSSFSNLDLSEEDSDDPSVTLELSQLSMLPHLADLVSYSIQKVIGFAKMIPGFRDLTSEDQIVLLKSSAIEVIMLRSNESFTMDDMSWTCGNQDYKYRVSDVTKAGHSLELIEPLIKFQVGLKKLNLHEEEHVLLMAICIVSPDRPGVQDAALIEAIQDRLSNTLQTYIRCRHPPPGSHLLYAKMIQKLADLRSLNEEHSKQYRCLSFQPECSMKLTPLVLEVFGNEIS
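Fluorescence polarization assay measuring small-molecule disruption of VDR binding to the coregulator peptide SRC2-3. Compounds were pin-transferred (23 nl) into the reagent mix and incubated 2 h at room temperature before reading.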
Active calls of the source: *; ? = inconclusive; & = joins results of further samples; [ ] = remark or other dose. % is scaled to controls: 0 for no effect and ±100 for the full control effect; potency is read from the fitted curve at half-maximal effect.

SMILES | VDR inh
O=c1[nH]c(CN2CC=C(c3ccccc3)CC2)nc2scc(-c3cccs3)c12 | 5%
COC1=C[C@@H]2[C@@H]3Cc4ccc(OC)c(O)c4[C@]2(CCN3C)CC1=O | 10%&-1%
CCCCCn1c(=O)c(C(=O)Nc2ccccn2)c(O)c2ccccc21 | -5%
O=c1[nH]c(=O)n(-c2cccc3ccccc23)c(O)c1C=NCc1ccc2c(c1)OCO2 | 24%
Ic1cncc(OC[C@@H]2CCN2)c1 | 13%
COc1ccc(NC(=O)CN2C(=O)C(C)N=C(c3ccccc3)c3ccccc32)cc1OC (configuration not stated) | -3%
Cc1ccc(C)c(CN2CCC(n3nnc4cc(F)ccc43)CC2)c1 | -11%
COc1ccccc1OCCCn1cc(C(=O)c2ccco2)c2ccccc21 | 6%
CN(CCc1ccccc1)Cc1ccccc1[N+](=O)[O-] | 1%
COC(=O)C(O)(c1c[nH]c2ccccc12)C(F)(F)F (configuration not stated) | 7%
Cc1ccccc1-n1c(O)c(/C=C2/C(c3ccccc3)=Nc3ccccc32)c(=O)[nH]c1=O | 89µM*
O=[N+]([O-])c1ccc(O[C@@H]2O[C@H](CO)[C@@H](O)[C@H](O)[C@H]2F)c([N+](=O)[O-])c1 | 2%
COC(=O)C1=C(c2ccc(OC)c(OC)c2)C[C@@H]2CC[C@H]1N2C(=O)NCCO | 10%
COc1ccc(CCC(=O)N2C[C@H]3C[C@@H](C2)c2cccc(=O)n2C3)cc1 | -13%
Fc1cccc(C2NCc3ccccc3-n3cccc32)c1 (configuration not stated) | 0%
COc1ccc(-n2c(/C=C/c3cccc(F)c3)nc3ccccc3c2=O)cc1Cl | 13%
COc1cc2c3cc1Oc1c(OC)c(OC)cc4c1[C@@H](Cc1ccc(OC(=O)c5ccc([N+](=O)[O-])cc5)c(c1)Oc1ccc(cc1)C[C@@H]3N(C)CC2)N(C)CC4 | ?
Clc1ccc(C2NCCc3[nH]cnc32)cc1 (configuration not stated) | -4%
CC(=O)OC1C=CC2[C@H]3Cc4ccc(O)c5c4[C@@]2(CCN3C)C1O5 (some centres not stated) | -15%
c1ccc(P(c2ccccc2)c2ccccn2)cc1 | -3%
Nc1ccccc1C(=O)OCC(=O)c1ccc2c(c1)OCCO2 | -18%
CC(=O)c1c(O)n(C2CCCCCC2)c(=O)[nH]c1=O | -13%
CC(=O)N(C1=NCCCS1)c1ccccc1F | -1%
Cn1c(=O)cc(SCC(=O)N2CCC3(CC2)OCCO3)c2ccc(Cl)cc21 | 12%
CCn1cc(C=C2C(=O)N(C)C(=O)N(C)C2=O)c2ccccc21 | 4%

4 of these compounds in a different format.
structure,VDR inh
Fc1cccc(C2NCc3ccccc3-n3cccc32)c1 (configuration not stated),0%
COc1ccc(-n2c(/C=C/c3cccc(F)c3)nc3ccccc3c2=O)cc1Cl,13%
COc1cc2c3cc1Oc1c(OC)c(OC)cc4c1[C@@H](Cc1ccc(OC(=O)c5ccc([N+](=O)[O-])cc5)c(c1)Oc1ccc(cc1)C[C@@H]3N(C)CC2)N(C)CC4,?
Clc1ccc(C2NCCc3[nH]cnc32)cc1 (configuration not stated),-4%

2 records picked at random from those above, as already listed:
SMILES | VDR inh
Ic1cncc(OC[C@@H]2CCN2)c1 | 13%
Cn1c(=O)cc(SCC(=O)N2CCC3(CC2)OCCO3)c2ccc(Cl)cc21 | 12%

Going on with the list:
SMILES | VDR inh
COCCNC(=O)c1c(NC(=O)c2ccco2)n(Cc2ccccc2)c2nc3ccccc3nc12 | -16%
COc1ccc(-n2c(O)c(C(C)=NCC3CCCO3)c(=O)[nH]c2=O)cc1 (configuration not stated) | 3%
O=c1c2ccccc2nc(-c2ccccc2)n1-n1cccc1 | 9%
O=P(Oc1ccccc1)(N1CCOCC1)N1CCOCC1 | 4%
O=C(CN1CC=C(c2ccccc2)CC1)NC(=O)NC1CCCCC1 | 22%
COc1cc(N2CCOCC2)ccc1C=C1C(=O)NC(=O)NC1=O | -13%
C[N+]1(C)C2CCC1CC(OC(=O)c1c[nH]c3ccccc13)C2 (configuration not stated) | 7%&-3%&-5%
CC(=O)C(Sc1ncnc2c1nnn2-c1ccc(F)cc1)C(=O)N(C)C (configuration not stated) | 50µM*
Cc1nc(N)sc1CCN | ?
CC1CCN(C(=O)C(C)Cl)CC1 (configuration not stated) | 4%
CCOP(=O)(Cc1ccc(C#N)o1)OCC | 14%
CCCC(=O)OC(C(Cl)(Cl)Cl)P(=O)(OC)OC (configuration not stated) | 5%
CC(=O)O[C@H]1CC[C@H]2[C@@H]3CCC4=CC(=O)CCC4=C3C=C[C@]12C | -8%
NC1CCCCC1N=Cc1c(O)n(Cc2ccc(F)cc2)c(=O)[nH]c1=O (configuration not stated) | -1%
COC(=O)C1=C(c2ccc(-c3ccccc3)c(F)c2)C[C@@H]2CC[C@H]1N2C(=O)N1CCOCC1 | -27%
CCOC(=O)CNC(=S)N1CC2C[C@@H](C1)Cn1c2cccc1=O | -5%
CC12CC1(C)C(=O)N(c1cc(Cl)cc(Cl)c1)C2=O (configuration not stated) | 10%
Cc1ccc(C2N3CCCN23)cc1 (configuration not stated) | -1%
COP(=S)(OC)Oc1ccc(Sc2ccc(OP(=S)(OC)OC)cc2)cc1 | 50µM*
Nc1ncnc2c1ncn2[C@@H]1O[C@H](COP(=O)(O)CP(=O)(O)O)[C@@H](O)[C@H]1O | 2%&0%
Cc1nc2ccccc2c(=O)n1-c1cccc(O)c1 | 4%
Cn1c(O)c(C=NC2CCCCCC2)c(=O)[nH]c1=S | 1%
COC(=O)c1ccc(N2C(=O)CC(N3CCC(n4c(=O)[nH]c5ccccc54)CC3)C2=O)cc1 (configuration not stated) | 12%
CCOc1ccc(-n2c(O)c(/C=C3\C=Nc4ccccc43)c(=O)[nH]c2=O)cc1 | 183%[activator]
CC1CCCCN1CC(=O)c1ccc2cc[nH]c2c1 (configuration not stated) | 10%
SMILES | VDR inh
C[C@H](NC(=O)[C@@H](N)Cc1ccc(O)cc1)C(=O)NCC(=O)N(C)[C@@H](Cc1ccccc1)C(=O)NCCO | -2%
CC1=C(C(=O)Nc2ccccc2)SCCO1 | -27%
COC(=O)C1=C(c2ccc(Cl)c(C(F)(F)F)c2)C[C@@H]2CC[C@H]1N2C(=O)NCc1ccco1 | -23%
CCCCOCCCN1C(C)=CC(=C2C(=O)NC(=S)NC2=O)C=C1C | -10%
NC(CP(=O)(O)O)C(=O)O (configuration not stated) | 10%
NCCNc1ccc([N+](=O)[O-])c2cccnc12 | -28%
O=c1[nH]c(=O)n(Cc2ccccc2)c(O)c1C=Nc1ccc(CN2CCOCC2)cc1 | -7%
CCc1ccc(NC2=NCCCS2)cc1 | -9%
COc1ccc(C2C(C#N)=C(N)Oc3c2c(=O)oc2ccccc32)cc1Cn1cc([N+](=O)[O-])cn1 (configuration not stated) | 23%
CN1CC[C@@]23CCCC[C@@H]2[C@@H]1Cc1ccc(O)cc13 | -15%
Brc1ccc(Oc2cc(Br)c(Br)cc2Br)c(Br)c1 | -5%
O=C1c2ccccc2C(=O)c2ccccc21 | 5%&1%
O=C(/C=C/c1c[nH]c2ccccc12)c1c(O)n(CCc2ccccc2)c(=O)[nH]c1=O | 51%[activator]
CCCCCCCCCCCCCCCCOC[C@H](COP(=O)([O-])OCC[N+](C)(C)C)OC(C)=O | -3%&1%
Cc1cc(C(=O)CS(=O)(=O)c2ccccc2)cc(C)c1OC(=O)N(C)C | 6%
COc1ccc(NC(=O)CN(C)C(=O)CSC(c2ccccc2)c2ccccc2)cc1 | 4%
CCCCN1C(=O)NC(=O)C2(Cc3ccccc3N3CCOCC32)C1=O (configuration not stated) | -5%
O=C(COc1ccc(S(=O)(=O)N2CCOCC2)cc1)N1CCN(Cc2ccc3c(c2)OCO3)CC1 | 1%
CCC(CO)(C(=O)OC1CC2CCC(C1)N2C)c1ccccc1 (configuration not stated) | 4%
Cn1c(N)c(C(=O)COC(=O)Cc2ccccc2)c(=O)n(C)c1=O | -12%
CC(=O)CC(c1ccccc1)c1c(O)c2cc(O)ccc2oc1=O (configuration not stated) | -3%
COc1ccc(/C=C/C=C2C(=O)NC(=S)NC2=O)cc1 | ?
COc1ccccc1C1C([N+](=O)[O-])=C(N)Oc2c1c(=O)oc1ccccc21 (configuration not stated) | 0%
CC(C)[C@@]1(NC(=O)[C@@H]2C[C@H]3c4cccc5[nH]cc(c45)C[C@@H]3N(C)C2)O[C@@]2(O)[C@H]3CCCN3C(=O)[C@H](Cc3ccccc3)N2C1=O | -15%
Cc1cc(C)cc(-n2c(=O)[nH]c3ccccc3c2=O)c1 | 13%
SMILES | VDR inh
CC(=O)NC1N=C(C)N(c2ccccc2)C1=O (configuration not stated) | ?
CCC(=NC1CCN(Cc2ccccc2)CC1)c1c(O)[nH]c(=O)[nH]c1=O | -7%
O=C(Nc1ccc(OC(=O)N2CCCCC2)cc1)N1CCOCC1 | -23%
CC(C)(C)C(=O)C(Oc1ccc(Cl)cc1)n1cncn1 (configuration not stated) | 4%&-1%
CNC(C(=O)c1ccccc1)C(OC(C)=O)c1cccc([N+](=O)[O-])c1 (configuration not stated) | -12%
Cc1cccc(NP2(=O)NCCCN2)c1 | 7%
CC(C)NS(=O)(=O)c1ccc(OCC(=O)N2CCN(Cc3ccccc3)CC2)cc1 | 8%
CNc1ccc(C(=O)CC(O)CCC(C)C2OC(=O)CC(O)CC(=O)CC(O)CC(O)CC(O)CC(O)CC3(O)CC(O)C(C(=O)OC)C(CC(O[C@@H]4OC(C)C(O)C(N)C4O)/C=C/C=C/C=C/C=C/C=C/C=C/C=C/C2C)O3)cc1 (some centres not stated) | -25%
CCCC(=O)C1C(=O)NC(=O)NC1=O | 18%
Cc1ccc(OCC(=O)N2CCCC(N3CCN(c4ccc(F)cc4)CC3)C2)cc1 (configuration not stated) | -1%
COc1cccc(CNC2CN3CCC2CC3)c1OC (configuration not stated) | 0%
OC(CCNCCc1c[nH]c2ccccc12)C(F)(F)F (configuration not stated) | 1%
COc1ccc(CC2NC[C@H](O)[C@H]2OC(C)=O)cc1 (some centres not stated) | 12%
Nc1c(C(=O)NC2CCCC2)c2nc3ccccc3nc2n1CC1CCCO1 (configuration not stated) | ?
C=CCc1ccc2c(c1)OCO2 | 4%
O=C(Nc1cccc(OC(=O)N2CCCCC2)c1)N1CCCCC1 | -1%
CCC1(c2ccccc2)C(=O)NC(=O)N(C)C1=O (configuration not stated) | 4%
CN1C(=O)NC(=O)/C(=C\c2ccc([N+](=O)[O-])o2)C1=O | ?
C=CCn1c(O)c(C(CC)=Nc2ccccc2NC(C)=O)c(=O)[nH]c1=O | -12%
O=C(c1ccc(Cl)cc1)C1CCCN(Cc2ccc3ncccc3c2)C1 (configuration not stated) | -7%
Cc1ccc2nsnc2c1-n1c(C)nc2ccccc2c1=O | -6%
Cc1ccc(C[N+](C)(C)C)o1 | -1%&-5%&-1%
CC(=O)NC(=O)NC(C)Cc1ccccc1 (configuration not stated) | 3%
Cc1nn(-c2ccccc2)c2c1C(c1ccc3c(c1)OCO3)SCC(=O)N2 (configuration not stated) | -11%
CC(C)N1CCN(Cc2cccc([N+](=O)[O-])c2)CC1 | 2%
SMILES | VDR inh
O=P1(Nc2ccc(F)cc2)COc2ccccc2OC1 | -8%
O=[N+]([O-])c1cc(Cl)c(Cl)cc1Cl | 0%
CCNc1nc(NC(C)(C)C)nc(SC)n1 | -18%
NC(Cc1ccc(O)cc1)C(=O)NN=Cc1ccc(N(CCCl)CCCl)cc1 (configuration not stated) | -4%
COCc1ccc(CN2CCCC(C(=O)c3sccc3C)C2)o1 (configuration not stated) | -5%
CC(C)c1ccccc1OCC(=O)N1CCCN(C)CC1 | 9%
O=C(CCl)c1ccc(Oc2ccc(C(=O)CCl)cc2)cc1 | 7.1µM*
C=C1C/C(=C/C)C(=O)O[C@@H]2CCN3CC=C(COC(=O)[C@]1(C)O)[C@H]23 | ?
O=C(O)/C=C\C(=O)O | -18%
C/C=C1/C[C@@H](C)[C@](O)(CO)C(=O)OCC2=CCN3CC[C@@H](OC1=O)C23 (some centres not stated) | 1%&-8%
CC(C)=CC1C(C(=O)OCN2C(=O)C3=C(CCCC3)C2=O)C1(C)C (configuration not stated) | 3%
CC(Cc1cccc(C(F)(F)F)c1)NCCCc1ccccc1 (configuration not stated) | -5%
CC(C)NC(=O)Cn1cc(C(=O)c2ccccc2)c2ccccc21 | -3%
N[C@H](Cc1o[nH]c(=O)c1Cl)C(=O)O | 4%
CNCC(O)c1cc(F)c(OCc2ccccc2)c(OCc2ccccc2)c1F (configuration not stated) | -6%
O=C1Nc2ccccc2C2(CCN(CCc3ccc(C(F)(F)F)cc3)CC2)O1 | 2%
CC(C)C(C)(NC(=O)c1cccn(Cc2ccc3c(c2)OC(F)(F)O3)c1=O)C(N)=O (configuration not stated) | 1%
CC(C)(N)Cc1ccc(Cl)cc1 | 2%
CCOC(=O)[C@]12Cc3cc(OC)c(OC)cc3[C@H]1N(Cc1ccccc1)C(=O)c1ccccc12 | 5%
S=C1CN=C(c2ccccc2Cl)c2cc(Cl)ccc2N1 | -11%
CC[n+]1c(/C=C/C=C/c2ccc(N(C)C)cc2)sc2ccccc21 | -154%
Cc1ccccc1-n1c(O)c(/C=N/Nc2nc3c(c(=O)n(C)c(=O)n3C)n2C)c(=O)[nH]c1=S | -2%
CC(Cc1ccccc1)NCC(=O)Nc1cc(N(C)C)nc2ccccc12 (configuration not stated) | 0%

A draw from above in order of molecular weight, highest first:
SMILES | VDR inh
CNCC(O)c1cc(F)c(OCc2ccccc2)c(OCc2ccccc2)c1F (configuration not stated) | -6%
COCc1ccc(CN2CCCC(C(=O)c3sccc3C)C2)o1 (configuration not stated) | -5%
CC(C)(N)Cc1ccc(Cl)cc1 | 2%

The list is partial; count on the stated rates, not on these rows.
